High-throughput results from PubChem BioAssay.
A1 inh = inhibitors of A1; MEF A1-2A-BIM cells, caspase-Glo luminescence, 3 h; percent of clofoctol signal, DMSO as zero; caspase activation, % (no concentration beside the values); 21,000 compounds, 0.51% hits; AID 2241;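 active = most replicate scores above 10, or exactly half above 10 with mean activity above 10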;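 also: effector caspase 3 and 7 activity cleaving a DEVD luciferin substrate; 50 nL library stock added to about 30 µL; numbers are from one replicate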
BJeLR viability = BJeLR cell viability reduction; BJeLR fibroblasts viability, CellTiterGlo ATP luminescence, 48 h; HRASV12, hTERT and SV40 LT/ST transformed; viability loss activity score, % (concentration not given with the values); 30,000 compounds, 0.64% hits; AID 2275; in the data active = viability loss activity score above about 50%; about a fifth of its hits are not listed in these tables;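 also: higher score means fewer live cells and less ATP luminescence; stock transfer was 50 or 100 nL into about 30 µL; 0% = vehicle wells and 100% = a reference killing control; one replicate is shown; the record names a cut of 85%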
* hit, by the source's call; · = not tested or not shown. Only part of the results is shown (hit frequency here may not be typical).

no.	SMILES	A1 inh	BJeLR viability
1	C=C[C@@]1(C)CCC2=C(C1)C(=O)CC1[C@](C)(C(=O)O)CCC[C@]21C (stereo partly drawn)	0.5	-4.7
2	CC(C)C(C(=O)O)N1C(=O)/C(=C/c2ccc(Br)cc2)SC1=S (stereo not drawn)	-1.1	4.3
3	CC(C)c1ccc(NC(=O)NCC2CCCO2)cc1 (stereo not drawn)	0.6	3.4
4	C[C@@H]1CN([C@@H](C)CO)C(=O)c2cccc(NS(=O)(=O)c3cccs3)c2O[C@@H]1CN(C)C	·	-0.5
5	Cc1cc(C(=O)Nc2cccc3c2O[C@H](CN(C)Cc2ccc(C(=O)O)cc2)[C@H](C)CN([C@H](C)CO)C3=O)n(C)n1	·	-0.1
6	O=C(Nc1ccccc1)C(F)(F)F	-0.2	-2.2
7	Cc1noc(C)c1NC(=O)N(C)C[C@@H]1Oc2c(NC(=O)NC3CCCCC3)cccc2C(=O)N([C@H](C)CO)C[C@@H]1C	·	2.6
8	COC(=O)c1ccc2c(=O)n(-c3ccc(F)c(Cl)c3)c(SCC(=O)C(C)(C)C)nc2c1	-0.2	1.7
9	C[C@@H]1O[C@@H](O[C@H]2[C@H](OC(=O)[C@]34CCC(C)(C)C[C@H]3C3=CCC5[C@@]6(C)C[C@H](O)[C@H](O[C@@H]7O[C@H](C(=O)O)[C@@H](O)[C@H](O)[C@H]7O)[C@@](C)(CO)C6[C@H](O)C[C@@]5(C)[C@]3(C)C[C@H]4O)O[C@@H](CO)[C@@H]2O)[C@H](O)[C@H](O)[C@H]1O[C@@H]1OC[C@@H](O)[C@H](O[C@H]2OC[C@](O)(CO)[C@H]2O)[C@H]1O (stereo partly drawn)	4.9	7.4
10	COc1cc(C)c(C(=O)Oc2cc(C)c(C(=O)Oc3cc(C)c(C(=O)NC(C)C(=O)O)c(O)c3)c(O[C@@H]3O[C@H](CO)[C@@H](O)[C@H](O)[C@H]3OC(C)=O)c2)c(OC)c1 (stereo partly drawn)	0.1	4.5
11	COc1ccc(-c2coc3cc(O[C@@H]4O[C@H](CO)[C@@H](O)[C@H](O)[C@H]4O)cc(O)c3c2=O)cc1	-0.6	-2.4
12	N#CC(C(=O)C(F)(F)F)c1nc2ccccc2[nH]1 (stereo not drawn)	-4.3	27
13	C[C@H](CO)N1C[C@H](C)[C@@H](CN(C)C(=O)Nc2ccccc2)Oc2c(NC(=O)Nc3cccc4ccccc34)cccc2C1=O	·	-5.6
14	COc1ccccc1C(=O)N/C(N)=N/c1nc2ccccc2o1	-0.5	1.7
15	CCc1ccc(NC(=O)c2ccc3c(=O)n4c(nc3c2)CCCCC4)cc1	-0.3	5.6
16	CC(=O)N(Cc1ccco1)C1(C(=O)NC2CCCCC2)CCCCC1	·	3.3
17	Cc1cc(C)n(C(=O)c2ccncc2)n1	·	2.2
18	Cc1nnc(NC(=O)CSc2nnc(Cc3cccn3C)n2-c2ccc(F)cc2)s1	0.3	-3.2
19	CNC[C@@H]1Oc2c(NC(=O)c3cnccn3)cccc2C(=O)N([C@H](C)CO)C[C@H]1C	·	-3.0
20	C[C@H]1CN([C@@H](C)CO)C(=O)c2cccc(NC(=O)Nc3cccc4ccccc34)c2O[C@H]1CN(C)Cc1ccc(C(=O)O)cc1	·	14
21	CC(O)CCCc1cc(O)cc(O[C@@H]2O[C@H](CO)[C@@H](O)[C@H](O)[C@H]2O)c1 (stereo partly drawn)	-0.5	2.1
22	O=C1Nc2ccccc2C(O)(C(=O)N2CCCCC2)N1c1ccccc1 (stereo not drawn)	0.2	2.5
23	C[C@H]1CN([C@@H](C)CO)C(=O)c2cc(NS(C)(=O)=O)ccc2O[C@@H]1CN(C)S(=O)(=O)c1cn(C)cn1	0.0	-2.8
24	Cc1cc(C=C2C(=O)OC(C)(C)OC2=O)c(C)n1-c1ccc(I)cc1	-0.8	-1.5
25	Cc1onc(-c2ccccc2)c1C(=O)Oc1cccnc1	·	-9.1

Further entries follow.
no.	SMILES	A1 inh	BJeLR viability
26	C[C@@H]1CN([C@@H](C)CO)C(=O)c2cc(NC(=O)CCC(F)(F)F)ccc2O[C@H]1CN(C)C(=O)Nc1ccc(C(F)(F)F)cc1	-0.5	-5.5
27	CC(=O)N(CCc1ccccc1)CC1C(Oc2ccc(Cl)cc2)C(=O)N1c1ccccc1C (stereo not drawn)	·	1.9
28	COC(=O)c1sc(C(C)(C)C)cc1CS(=O)(=O)c1cc(C)c(Cl)cc1C	-0.8	3.9
29	COc1ccc(NC(=O)N(C)C[C@H]2Oc3c(NC(=O)c4ccc(-c5nccs5)cc4)cccc3C(=O)N([C@H](C)CO)C[C@H]2C)cc1	·	0.3
30	CCc1nc(-n2nnc3cc(C)c(C)cc32)c2c3c(sc2n1)CCCC3	-0.5	-5.5
31	C[C@@H]1CN([C@H](C)CO)C(=O)c2cccc(NS(C)(=O)=O)c2O[C@H]1CN(C)Cc1ccc(-c2ccccc2)cc1	·	-0.8
32	COc1ccc(S(=O)(=O)Nc2ccc3c(c2)C(=O)N([C@H](C)CO)C[C@@H](C)[C@@H](CN(C)Cc2ccc(Oc4ccccc4)cc2)O3)cc1	0.0	-5.6
33	O=C(O)CN1N=C(c2ccc(Cl)cc2)CCC1=O	-0.3	4.6
34	CCn1c(=O)cc(O)c2ccccc21	-0.7	12
35	C[C@@H]1CN([C@H](C)CO)C(=O)c2cc(NS(=O)(=O)c3ccc(F)cc3)ccc2O[C@H]1CN(C)C(=O)Nc1ccc(C(F)(F)F)cc1	-0.2	-3.0
36	Cc1noc(C)c1NC(=O)N(C)C[C@H]1Oc2c(NS(=O)(=O)c3ccccc3)cccc2C(=O)N([C@H](C)CO)C[C@@H]1C	·	12
37	CC(C)NC(=O)Nc1cccc2c1O[C@@H](CN(C)S(=O)(=O)c1cn(C)cn1)[C@@H](C)CN([C@H](C)CO)C2=O	·	-3.9
38	CCN(CC)C(=O)c1ccc(COc2ccccc2Cl)o1	0.3	3.1
39	Cc1nc2cc(-c3ccccc3)nn2c(C)c1Sc1nccc(-c2cccnc2)n1	-0.7	-1.7
40	COc1ccc2oc(=O)c3c(c2c1)CC(C(F)(F)F)S3 (stereo not drawn)	-1.1	9.8
41	CCC1CCCCN1S(=O)(=O)c1ccc(Cl)cc1 (stereo not drawn)	-0.3	8.9
42	Cc1ccc(S(=O)(=O)NCCC(=O)N2CCN(Cc3ccccc3)CC2)cc1	0.1	-4.1
43	CCOC(=O)c1cnc(S/C=C/C(=O)c2ccc(C)cc2)nc1N	1.5	90*
44	C[C@H](CO)N1C[C@H](C)[C@H](CN(C)Cc2ccc(-c3ccccc3)cc2)Oc2c(NS(=O)(=O)c3cn(C)cn3)cccc2C1=O	·	-1.2
45	C[C@@H]1CN([C@H](C)CO)C(=O)c2cc(NC(=O)Nc3cccc4ccccc34)ccc2O[C@@H]1CN(C)C	0.1	-0.5
46	COc1ccc(OC)c(NC(=O)c2ccc(CSc3ncnc4nc[nH]c34)cc2)c1	-0.3	5.6
47	O=C(COc1nnc(SCCS(=O)(=O)c2ccc(F)cc2)n1C1CC1)c1ccc(F)cc1	0.0	2.6
48	Cc1ccc(S(=O)(=O)Nc2ccc3c(c2)C(=O)N([C@H](C)CO)C[C@@H](C)[C@H](CN(C)C(=O)NC(C)C)O3)cc1	-0.1	-0.6
49	Cc1nc(C(F)(F)F)ccc1NC(=O)NCCNc1cccc(C(F)(F)F)n1	·	-0.4
50	Cc1[nH]n(-c2ccccc2)c(=O)c1C=Nc1ccc(O)cc1	·	3.0

The listing continues.
no.	SMILES	A1 inh	BJeLR viability
51	C[C@@H]1CN([C@H](C)CO)C(=O)c2cccc(NC(=O)Nc3ccc4c(c3)OCO4)c2O[C@@H]1CN(C)Cc1ccccc1	·	-0.5
52	CCC(Sc1nnc(-c2c[nH]c3ccccc23)n1C)C(=O)OC (stereo not drawn)	·	-3.1
53	Nc1nc(-c2ccc(F)cc2)cc(C(F)(F)F)n1	·	-2.3
54	Cc1ccc(S(=O)(=O)Nc2ccc3c(c2)C(=O)N([C@@H](C)CO)C[C@H](C)[C@@H](CN(C)Cc2ccc(Oc4ccccc4)cc2)O3)cc1	0.5	2.0
55	Clc1ccccc1C1SCC2Nc3ccccc3CN21 (stereo not drawn)	0.9	-0.5
56	C[C@@H]1CN([C@@H](C)CO)C(=O)c2cccc(NC(=O)Nc3ccc(F)cc3)c2O[C@@H]1CN(C)Cc1ccc(Oc2ccccc2)cc1	·	-0.4
57	Cc1cc(C(=O)Nc2cccc3c2O[C@@H](CN(C)C(=O)NC(C)C)[C@@H](C)CN([C@H](C)CO)C3=O)n(C)n1	·	4.5
58	Cc1noc(C)c1NC(=O)N(C)C[C@H]1Oc2c(NC(=O)Nc3cccc4ccccc34)cccc2C(=O)N([C@@H](C)CO)C[C@@H]1C	·	3.5
59	COc1ccc(C2CC(=O)c3cnc(NCCc4ccccc4)nc3C2)cc1 (stereo not drawn)	-0.4	-5.0
60	CC1(O)CC(=O)c2c(ccc3c2C(=O)c2cccc(O)c2C3=O)C1 (stereo not drawn)	-0.8	0.4
61	C[C@@H]1CN([C@@H](C)CO)C(=O)c2cc(NS(=O)(=O)c3ccc(Cl)cc3)ccc2O[C@@H]1CN(C)Cc1ccncc1	0.3	-1.9
62	COc1cc2c(cc1OC)C(c1ccc(Cl)cc1)=NCC2	0.1	-2.0
63	CCOC(=O)c1nc2ccccc2s1	1.0	-0.2
64	CSc1sc(-c2ccon2)c(-c2ccco2)c1C#N	-0.2	7.8
65	Cc1cc(C(=O)Sc2cccc(C(F)(F)F)c2)nn1C(C)(C)C	0.2	-0.2
66	CCN(Cc1ccccc1)C(=O)c1ccc2c(Cl)c3c(nc2c1)CCCC3	·	-3.0
67	COC(=O)C1=CO[C@@H](OC2OC(O)C(O)C(O)C2CO)[C@H]2[C@@H]1C=CC21C=C([C@H](C)O)C(=O)O1 (stereo partly drawn)	-0.4	-3.8
68	CNC[C@@H]1Oc2c(NC(=O)Nc3ccc(OC)cc3)cccc2C(=O)N([C@@H](C)CO)C[C@@H]1C	·	-4.6
69	Cc1ccc(S(=O)(=O)N(C)C[C@@H]2Oc3c(NC(=O)c4cc(C)nn4C)cccc3C(=O)N([C@H](C)CO)C[C@@H]2C)cc1	·	1.8
70	COC(=O)c1ccc(S(=O)(=O)Nc2ccc3c(c2)C(=O)OC3)n1C	1.1	5.3
71	CC1CCC(O)C2C=CC(C)(O)C(C)(C(=O)CCO)C12 (stereo not drawn)	-0.2	-2.7
72	COc1ccc(NC(=O)Nc2ccc3c(c2)C(=O)N([C@@H](C)CO)C[C@H](C)[C@H](CN(C)Cc2ccccc2)O3)cc1	-0.3	13
73	CCc1ccc(NC(=O)CCn2cccc2)cc1	-0.9	2.3
74	C[C@H](CO)N1C[C@H](C)[C@@H](CN(C)C(=O)Nc2cccc3ccccc23)Oc2c(NC(=O)Nc3ccc(F)cc3)cccc2C1=O	·	-2.8
75	COc1ccc(C(=O)CSc2n[nH]c(=O)n2Cc2ccco2)cc1	0.4	-2.8

3 records drawn at random from the list so far, as already listed:
no.	SMILES	A1 inh	BJeLR viability
73	CCc1ccc(NC(=O)CCn2cccc2)cc1	-0.9	2.3
24	Cc1cc(C=C2C(=O)OC(C)(C)OC2=O)c(C)n1-c1ccc(I)cc1	-0.8	-1.5
62	COc1cc2c(cc1OC)C(c1ccc(Cl)cc1)=NCC2	0.1	-2.0

Among those listed so far, these contain a cyano group:
no.	SMILES	A1 inh	BJeLR viability
12	N#CC(C(=O)C(F)(F)F)c1nc2ccccc2[nH]1 (stereo not drawn)	-4.3	27
64	CSc1sc(-c2ccon2)c(-c2ccco2)c1C#N	-0.2	7.8

Remaining list, next part:
no.	SMILES	A1 inh	BJeLR viability
76	C[C@@H]1CN([C@@H](C)CO)C(=O)c2cc(NC(=O)NC3CCCCC3)ccc2O[C@@H]1CN(C)C(=O)Nc1ccccc1	-0.2	-2.0
77	C[C@H](CO)N1C[C@H](C)[C@@H](CN(C)S(=O)(=O)c2cccs2)Oc2ccc(NS(=O)(=O)c3cccs3)cc2C1=O	0.2	2.7
78	C[C@@H]1CN([C@@H](C)CO)C(=O)c2cc(NC(=O)CCCN(C)C)ccc2O[C@@H]1CN(C)C	0.4	0.1
79	C[C@H]1CN([C@@H](C)CO)C(=O)c2cc(NC(=O)Nc3ccc4c(c3)OCO4)ccc2O[C@H]1CN(C)C(=O)Nc1ccc2c(c1)OCO2	-0.1	1.3
80	C[C@@H]1CN([C@H](C)CO)C(=O)c2cccc(NC(=O)Nc3cccc4ccccc34)c2O[C@@H]1CN(C)CC1CCCCC1	·	1.6
81	C[C@@H]1CN([C@H](C)CO)C(=O)c2cc(NC(=O)Cn3cnnn3)ccc2O[C@H]1CN(C)S(C)(=O)=O	0.7	3.8
82	C[C@@H]1CN([C@H](C)CO)C(=O)c2cc(NS(C)(=O)=O)ccc2O[C@@H]1CN(C)Cc1ccc(C(F)(F)F)cc1	0.1	-2.4
83	CN1CCN(CC(=O)N2c3ccccc3C(=O)Nc3cccnc32)CC1	0.6	-1.5
84	Cc1ccc(S(=O)(=O)Nc2cccc3c2O[C@H](CN(C)Cc2ccc(C(=O)O)cc2)[C@@H](C)CN([C@H](C)CO)C3=O)cc1	·	-2.9
85	Fc1ccc(-c2oncc2-c2nnnn2-c2ccc(Cl)cc2)cc1	0.4	-2.8
86	COc1ccc(NC(=O)N(C)C[C@H]2Oc3ccc(NC(=O)C4CCCCC4)cc3C(=O)N([C@@H](C)CO)C[C@@H]2C)cc1	0.1	2.1

Screen by screen, from the results shown.
Compounds 77–81 in A1 inh: 0.2, 0.4, -0.1, ·, 0.7
